Assay outcomes as filed in PubChem BioAssay.
S aureus helic: inhibitors of S. aureus replicative helicase, primary screen, biochemical, fluorescence unwinding readout | replicative DNA helicase (DnaC/DnaB), Staphylococcus aureus | purified S. aureus helicase, fluorescence unwinding assay; about half of the hits fall short of the stated cut | inhibition, %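 (tested at about 80 µM)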 | 0.05% of 120,000 active | AID 485395, 2010;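 active means both duplicates at 50% or more, or one of them with a favoured structure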;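 further: 0% = mean of negative control wells and 100% = mean of positive control wells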
MgrA DNA FP: S. aureus MgrA activity modulators, primary screen, biochemical, S. aureus Newman, fluorescence polarization; MgrA-DNA binding; inhibition, %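 (about 10 µg/mL by stock and volumes)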; 0.13% of 84,000 active; AID 602314, 2012;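 active means above 50% in either of two replicates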;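 further: 0% = protein plus DNA without compound and 100% = DNA alone without protein; higher means less MgrA bound to DNA so lower polarization; one replicate is shown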
Numbers without * were called inactive.

Results for Cc1cc(C)c(N(CC(O)Cn2cc(/C=N/O)c3ccccc32)S(C)(=O)=O)c(C)c1 (stereo unspecified) ?
S aureus helic: 20

What do the screens show for `CN(C(=O)COC(=O)Cn1nnc(-c2ccccc2)n1)C1CCCCC1`?
S aureus helic: -19

How did CCOC(=O)c1cn(C(=O)c2ccco2)nc1C(F)(F)F do in these assays?
MgrA DNA FP: -3.6

Results for c1ccc(NC2CCCCC2)cc1 ?
MgrA DNA FP: -1.2

How did O=C(CN1C(=O)c2ccccc2C1=O)c1ccc(C(F)(F)F)cc1 do in these assays?
MgrA DNA FP: -0.2

Results for O=C(COc1ccccc1)Nc1ccc(S(=O)(=O)Nc2ncccn2)cc1 ?
S aureus helic: 0; MgrA DNA FP: -0.7

Results for Cc1nnsc1C(=O)Oc1cccnc1 ?
MgrA DNA FP: -1.0

How did CCOC(=O)N1CCC(NC(=O)CN2C(=O)COc3ccc(C(C)(C)C)cc32)CC1 do in these assays?
S aureus helic: 4

How did COc1ccc(C(=O)C[n+]2ccc3c(c2)nnn3C)cc1 do in these assays?
S aureus helic: 1; MgrA DNA FP: 4.2

What do the screens show for `CCCC1CCC(c2ccc(/C(N)=N/O)cc2)CC1` (stereo unspecified)?
S aureus helic: 9; MgrA DNA FP: -2.9

How did CCOC(=O)C1=C(C)NC(=O)NC1c1c(O)ccc2ccccc12 (stereo unspecified) do in these assays?
S aureus helic: -6; MgrA DNA FP: 2.6

Results for CC(=O)Oc1ccc(C2C(C(=O)OCCOc3ccccc3)=C(C)NC3=C2C(=O)CC(c2ccccc2)C3)cc1 (stereo unspecified) ?
MgrA DNA FP: -1.3

How did COCCn1c(SCc2nc3ccccc3nc2C)nc2ccccc21 do in these assays?
S aureus helic: -8

Results for Cc1ccc2[nH]c(=O)c3cc(C(=O)NC(C)C)sc3c2c1 ?
S aureus helic: 4; MgrA DNA FP: 0.7

What do the screens show for `CCNC(=O)CC1Nc2cc(C)c(C)cc2NC1=O` (stereo unspecified)?
S aureus helic: 1

What do the screens show for `CSc1cccc(NC(=O)CCS(=O)(=O)c2ccc3nc(C)sc3c2)c1`?
S aureus helic: 1; MgrA DNA FP: 0.6

What do the screens show for `CCCCn1cnc2cc(NCc3ccc(C)cc3)ccc21`?
S aureus helic: 7; MgrA DNA FP: 1.1

What do the screens show for `COc1ccc(-n2c(SCC(=O)N(C)Cc3cccs3)nc3ccccc32)cc1`?
S aureus helic: 12

Results for CC(C)=NNC(=S)Nc1ccc(Cl)cc1 ?
S aureus helic: 3

Results for Cc1ccc(OC(C)(C)C(=O)O)c2c1CCC2 ?
MgrA DNA FP: 1.8

How did O=S(=O)(c1ccc(Br)cc1)N1CCn2c(nc3ccccc32)C1 do in these assays?
S aureus helic: -1

Results for NC(=O)COc1ccc2ccc(=O)oc2c1 ?
S aureus helic: 10; MgrA DNA FP: 0.1

Results for CCOC(=O)c1c(C)[nH]c(C(=O)NCC(c2ccco2)N2CCCCC2)c1C (stereo unspecified) ?
S aureus helic: -4

How did CCC1CN=C(Nc2cccc(C)c2)S1 (stereo unspecified) do in these assays?
S aureus helic: 12; MgrA DNA FP: -0.6

What do the screens show for `COc1ccc(C2=NN(C(=O)CCC(=O)O)C(c3ccccc3F)C2)cc1OC` (stereo unspecified)?
S aureus helic: 18; MgrA DNA FP: 0.4

How did N#CCc1nc(-c2ccccc2)no1 do in these assays?
S aureus helic: -15

Results for Cc1ccc(-n2c(C)cc(C(=O)CC#N)c2C)cc1C ?
S aureus helic: 10

How did CCOC(=O)c1c(N(C)C)ccc(C2C=CNC(=O)N2)c1C (stereo unspecified) do in these assays?
MgrA DNA FP: -1.2

What do the screens show for `C=CCSc1nnc(NC(=O)c2oc3ccccc3c2C)s1`?
S aureus helic: 1

What do the screens show for `N#Cc1c[nH]c2ccc(N3C(=O)c4ccccc4C3=O)cc12`?
S aureus helic: -13

Results for CC(C)NC(=O)CC1Sc2ccccc2NC1=O (stereo unspecified) ?
S aureus helic: -1; MgrA DNA FP: 4.3

What do the screens show for `COc1ccc(N=Cc2sc3ccccc3c2Cl)cc1`?
S aureus helic: -21; MgrA DNA FP: 1.4

Results for CCOC(=O)N1CCN(C(=O)c2cc(Nc3ccc(OC)cc3OC)nc3ccccc23)CC1 ?
S aureus helic: 5; MgrA DNA FP: 0.7

How did O=C(NCc1ccco1)C1CCN(S(=O)(=O)Cc2ccccc2)CC1 do in these assays?
S aureus helic: -7; MgrA DNA FP: 0.3

Results for CCC(Sc1nc2ncccc2[nH]1)C(=O)N(CC)c1cccc(C)c1 (stereo unspecified) ?
S aureus helic: 6; MgrA DNA FP: -0.2

Results for O=C(/C=C/CC(=O)OC1CCCC1)OC1CCCC1 ?
S aureus helic: -14

How did COCCN1C(=O)c2ccccc2C(C(=O)NCCCN2CCC(C)CC2)C1c1ccc(F)cc1 (stereo unspecified) do in these assays?
S aureus helic: 9; MgrA DNA FP: 0.4

What do the screens show for `Cc1cc2cc(CNS(=O)(=O)c3ccccc3)ccc2n1C`?
S aureus helic: 3; MgrA DNA FP: 0.0

What do the screens show for `O=C(O)CC(c1ccsc1)n1cccc1` (stereo unspecified)?
MgrA DNA FP: 0.1

What do the screens show for `CN(C)/C=C/C(=O)c1ccco1`?
S aureus helic: 41

How did CCCCN(C)c1nnc(NC(=O)Nc2cccc(C)c2)s1 do in these assays?
S aureus helic: 7; MgrA DNA FP: -0.1

How did CC(NCCCO)c1ccccn1 (stereo unspecified) do in these assays?
S aureus helic: 10; MgrA DNA FP: -0.4

Results for COCc1[nH]nc2c1C(c1ccc(OCC(N)=O)c(OC)c1)C(C#N)=C(N)O2 (stereo unspecified) ?
S aureus helic: 2; MgrA DNA FP: 1.4

Results for COc1ccc(Cl)cc1S(=O)(=O)NCCN1CCOCC1 ?
S aureus helic: -21

Results for CCOc1cc(C2C(C(=O)OC(C)CC)=C(C)NC3=C2C(=O)CC(c2ccc(OC)cc2)C3)ccc1OC(C)=O (stereo unspecified) ?
MgrA DNA FP: -0.1

What do the screens show for `CCCCN(Cc1nnc(-c2ccccc2)o1)c1ccccc1`?
S aureus helic: 18

How did O=C(CSc1nnc(CNC(=O)c2ccccc2F)o1)Nc1ccc(F)cc1F do in these assays?
S aureus helic: 8; MgrA DNA FP: 0.7

What do the screens show for `COC(=O)c1cc(S(=O)(=O)Nc2nn(C)c3cccc(F)c23)oc1C`?
S aureus helic: -29

What do the screens show for `Cc1cccc(NC(=O)Cn2c(=O)n(CCCC(=O)NCc3ccc4c(c3)OCO4)c(=O)c3ccccc32)c1`?
S aureus helic: -37

How did O=C(COC(=O)c1ccc(Oc2ccccc2)cc1)Nc1ncccn1 do in these assays?
S aureus helic: -18

What do the screens show for `CC(=O)Nc1ccc(C(=O)OCC(N)=O)cc1`?
S aureus helic: -5

What do the screens show for `COC(=O)CC(=O)CSc1nc(C)cc(C)c1C#N`?
S aureus helic: 9; MgrA DNA FP: 16

What do the screens show for `COc1cc(C2(C)SCc3cc(C)c(C)cc3CS2)ccc1O`?
MgrA DNA FP: -1.2

Results for O=c1[nH]/c(=C/c2ccco2)c(=O)[nH]/c1=C\c1ccco1 ?
S aureus helic: -1; MgrA DNA FP: 2.1

How did COc1ccc2oc(C(=O)N(C)Cc3nc4ccccc4c(=O)[nH]3)c(C)c2c1 do in these assays?
S aureus helic: 4

What do the screens show for `N#CC1=C(N)C(C#N)(C#N)C(c2cccs2)C=C1C1CC1` (stereo unspecified)?
S aureus helic: -24

What do the screens show for `COc1cccc(C(=O)NCCc2cc3ccc(OC)cc3[nH]c2=O)c1`?
S aureus helic: 16

What do the screens show for `Cc1cn(C2OC(COC(=O)c3ccccc3)C(O)C2O)c(=O)[nH]c1=O` (stereo unspecified)?
S aureus helic: 1

What do the screens show for `O=C(c1ccccc1)c1ccc2[nH]c(=O)c(=O)[nH]c2c1`?
S aureus helic: 3

How did O=C(CSc1nc2c([nH]c3ccccc32)c(=O)n1-c1ccccc1)Nc1ccccc1 do in these assays?
S aureus helic: 8; MgrA DNA FP: -0.2

How did CCOC(=O)Nc1cc(OC)c(OC)cc1C(=O)OC do in these assays?
MgrA DNA FP: 1.2

What do the screens show for `O=C(CSc1nc2ccccc2o1)NCc1ccc(F)cc1`?
S aureus helic: 10

How did COC(=O)c1cc2nc(C)cc(C(F)(F)F)n2n1 do in these assays?
S aureus helic: 16; MgrA DNA FP: -0.1

What do the screens show for `COC(=O)c1cc(CSc2cccc[n+]2[O-])oc1C`?
S aureus helic: -9

What do the screens show for `CC(O)C(Nc1ncnc2ccccc12)C(=O)O` (stereo unspecified)?
S aureus helic: -19

What do the screens show for `CCN(CC)c1nc2c3c(nc4c(c3c1C#N)CC(=O)N4c1cc(Cl)cc(Cl)c1)NC(C)=N2`?
S aureus helic: -9

How did Cc1c(C(=O)NC2=NCCS2)sc2nc3n(c(=O)c12)CCCCC3 do in these assays?
S aureus helic: 9

What do the screens show for `Cn1c(=O)c(C(=O)CN2CCCCC2)c(N)n(Cc2ccccc2)c1=O`?
S aureus helic: -6

How did COC(=O)c1csc2c(C(F)(F)F)cc(N3CCN(C(=S)Nc4cc(C(F)(F)F)cc(C(F)(F)F)c4)CC3)nc12 do in these assays?
MgrA DNA FP: 3.1

What do the screens show for `Cc1ccc(S(=O)(=O)NC(=O)N(C)c2ccccc2)cc1`?
S aureus helic: -10

What do the screens show for `COn1c(=O)c(-c2ccc(I)cc2)[n+]([O-])c2ccccc21`?
S aureus helic: -17; MgrA DNA FP: 2.0

What do the screens show for `Cn1c(Cc2nnc3n2-c2ccccc2SC3)nc2ccccc21`?
S aureus helic: 9

How did N#C/C(=C\c1ccc(-c2ccc(S(N)(=O)=O)cc2)o1)c1ccc(Cl)cc1 do in these assays?
S aureus helic: 0

What do the screens show for `CN(Cc1ccccc1)S(=O)(=O)c1ccc(F)cc1`?
S aureus helic: 5; MgrA DNA FP: 2.1

What do the screens show for `CSc1nc(CSc2nnc(-c3ccccc3)n2-c2ccc(Cl)cc2)cc(=O)[nH]1`?
S aureus helic: 4

What do the screens show for `O=C(c1ccc2c(c1)N(Cc1ccc(F)cc1)C(=O)c1ccccc1S2=O)N1CCN(c2ccccc2)CC1` (stereo unspecified)?
S aureus helic: 18

What do the screens show for `COc1ccc(NC(=O)CSc2nnc(C)n2-c2ccccc2)cc1`?
S aureus helic: 8

How did O=S(=O)(NC1CCCCCC1)c1ccccc1 do in these assays?
S aureus helic: 4

What do the screens show for `COc1ccc(-c2nn3c(C)nnc3s2)cc1OC`?
S aureus helic: -21

How did COc1ccc(-c2c3c(=O)n(C)c(=O)n(C)c3c3n2C(C)(C)COC3)cc1 do in these assays?
S aureus helic: 0

Results for CCN(CC)S(=O)(=O)c1cccc(C(=O)OCN2C(=O)c3ccccc3C2=O)c1 ?
S aureus helic: -10

What do the screens show for `O=C(NC1CCN(Cc2ccccc2)CC1)c1ccccc1Br`?
MgrA DNA FP: -2.9

Results for Cc1cc(=O)[nH]c(SCC(=O)c2cccs2)n1 ?
S aureus helic: 9; MgrA DNA FP: -0.4

Results for CCN(C(=O)Nc1cn(C)c(=O)c2ccccc12)c1ccccc1 ?
S aureus helic: 4; MgrA DNA FP: 0.9

How did Cc1ccc2oc(=O)n(CC(=O)c3ccc(F)cc3)c2c1 do in these assays?
MgrA DNA FP: -6.2

What do the screens show for `Cc1ccccc1OC1C(=O)N(C2CCCC2)C1c1ccc2c(c1)OCO2` (stereo unspecified)?
S aureus helic: 11

How did O=C(c1cc(-c2ccco2)on1)N1CCCc2ccccc21 do in these assays?
S aureus helic: 18

What do the screens show for `COC(=O)Nc1nc2cc3c(cc2s1)OCCO3`?
MgrA DNA FP: 0.5

How did O=C(c1cc2nc(-c3ccccc3)cc(-c3ccccc3)n2n1)N1CCCC1 do in these assays?
S aureus helic: 3; MgrA DNA FP: -1.9

What do the screens show for `Cc1c(CCC#N)c(=O)n2c([nH]c3ccccc32)c1C#N`?
S aureus helic: 21

Entries above containing an aryl thioether with sulfur outside any ring (13):
How did COCCn1c(SCc2nc3ccccc3nc2C)nc2ccccc21 do in these assays?
S aureus helic: -8

What do the screens show for `CSc1cccc(NC(=O)CCS(=O)(=O)c2ccc3nc(C)sc3c2)c1`?
S aureus helic: 1; MgrA DNA FP: 0.6

What do the screens show for `COc1ccc(-n2c(SCC(=O)N(C)Cc3cccs3)nc3ccccc32)cc1`?
S aureus helic: 12

What do the screens show for `C=CCSc1nnc(NC(=O)c2oc3ccccc3c2C)s1`?
S aureus helic: 1

Results for CCC(Sc1nc2ncccc2[nH]1)C(=O)N(CC)c1cccc(C)c1 (stereo unspecified) ?
S aureus helic: 6; MgrA DNA FP: -0.2

How did O=C(CSc1nnc(CNC(=O)c2ccccc2F)o1)Nc1ccc(F)cc1F do in these assays?
S aureus helic: 8; MgrA DNA FP: 0.7

What do the screens show for `COC(=O)CC(=O)CSc1nc(C)cc(C)c1C#N`?
S aureus helic: 9; MgrA DNA FP: 16

How did O=C(CSc1nc2c([nH]c3ccccc32)c(=O)n1-c1ccccc1)Nc1ccccc1 do in these assays?
S aureus helic: 8; MgrA DNA FP: -0.2

What do the screens show for `O=C(CSc1nc2ccccc2o1)NCc1ccc(F)cc1`?
S aureus helic: 10

What do the screens show for `COC(=O)c1cc(CSc2cccc[n+]2[O-])oc1C`?
S aureus helic: -9

What do the screens show for `CSc1nc(CSc2nnc(-c3ccccc3)n2-c2ccc(Cl)cc2)cc(=O)[nH]1`?
S aureus helic: 4

What do the screens show for `COc1ccc(NC(=O)CSc2nnc(C)n2-c2ccccc2)cc1`?
S aureus helic: 8

Results for Cc1cc(=O)[nH]c(SCC(=O)c2cccs2)n1 ?
S aureus helic: 9; MgrA DNA FP: -0.4

This is a subset. The share of hits here may be higher or lower than overall.
